eIF4H FP inh: inhibitors of RNA binding by human eIF4H; Q15056; eIF4H fluorescence polarization binding assay; inhibition, % at 35 µM; 0.94% of 290,000 active;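 active = 50% or more with normal probe brightness, or confirmed in later tests; about a fifth of its hits are not listed in these tables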;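 note: calls also rest on retests at 20 µM and on dose response follow-up; 0% = protein and probe with vehicle and 100% = probe without protein; strong numbers were not always called active; many hits fall short of the cut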
Yeast UUG start: yeast start codon fidelity modulation. activity score, % at 18.7 µM. AID 602363. 0.13% of 350,000 active. S. cerevisiae UUG-firefly luciferase reporter, luminescence/redox ratio;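 active = replicate mean at a twofold rise or more, about +100% in these data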;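 note: firefly luciferase made from a UUG start codon reports start codon fidelity; reporter light over untreated wells divided by growth signal over untreated wells; some hits fall short of that in this replicate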
HIV Env fusion: inhibitors of HIV Env-mediated cell fusion | HeLa-JRFL Env/CEM21 cell fusion, luciferase | inhibition, % at 12.3 µM | 1.1% of 360,000 active;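 active = mean replicate inhibition score of at least 50 and every replicate individually at or above 50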;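 note: 0% = plate neutral controls and 100% = maraviroc near 300 nM; one replicate is shown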
MT1-MMP act inh: MT1-MMP (human) activation inhibition. P50281. HT1080 RFP-PRO-GFP cells, GFP/RFP ratio fluorescence, overnight; percent of plate control window, DMSO zero. GFP/RFP ratio change, % at 20 µM. 0.061% of 360,000 active. AID 651647;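 active = GFP/RFP ratio change of at least 30% with cell ATP level not reduced by more than half and red fluorescence within 50% of control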; note: strong numbers were not always called active
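system = RFP-PRO-GFP reporter HT1080 cells | dosing = 20 µM single dose, 1% DMSO | timing = overnight cell settling, then overnight compound exposure, 37 °C, 5% CO2 | read-out basis = GFP/RFP fluorescence ratio | controls = DMSO and RFP-L50D-GFP cell wells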
PABP polyA inh: PABP-poly(A) binding inhibition. P11940. PABP-poly(A) RNA binding, fluorescence polarization. inhibition, % at 35 µM. 1% of 290,000 active. AID 2014;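 active = 50% or more with normal probe brightness, or confirmed in later tests; about a fifth of its hits are not listed in these tables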;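 note: calls also rest on retests at 20 µM and on dose response follow-up; controls were probe without protein and protein plus probe with vehicle; some compounds called inactive have numbers as strong as hits; many hits fall short of the cut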
Target sequence (P11940 whole entry, looked up): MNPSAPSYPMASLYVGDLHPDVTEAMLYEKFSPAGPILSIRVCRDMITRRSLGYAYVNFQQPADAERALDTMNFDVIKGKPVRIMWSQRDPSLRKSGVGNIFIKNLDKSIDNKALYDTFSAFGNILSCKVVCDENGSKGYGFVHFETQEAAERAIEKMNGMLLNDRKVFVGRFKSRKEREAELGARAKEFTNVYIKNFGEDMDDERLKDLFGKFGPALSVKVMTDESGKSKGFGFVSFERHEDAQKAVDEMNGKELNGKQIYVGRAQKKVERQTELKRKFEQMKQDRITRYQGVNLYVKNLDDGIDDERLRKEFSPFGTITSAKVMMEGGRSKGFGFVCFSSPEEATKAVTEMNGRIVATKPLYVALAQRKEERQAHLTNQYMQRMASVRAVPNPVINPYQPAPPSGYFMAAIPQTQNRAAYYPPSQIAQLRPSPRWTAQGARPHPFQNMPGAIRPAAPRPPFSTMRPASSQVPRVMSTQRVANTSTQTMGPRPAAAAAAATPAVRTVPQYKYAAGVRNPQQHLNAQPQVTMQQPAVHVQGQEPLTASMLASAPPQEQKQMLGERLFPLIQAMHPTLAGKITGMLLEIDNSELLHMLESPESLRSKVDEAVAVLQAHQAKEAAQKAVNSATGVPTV
Rce1 inh: yeast Ras-converting enzyme inhibition; yeast membranes, quenched prenylated peptide cleavage fluorescence; calls only; 0.27% of 290,000 active; AID 2563;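 active = fall in fluorescence gain of 50% or more versus controls, with final raw signal at or below 3038400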;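 note: plate controls were neutral control wells for no effect and wells lacking membranes for full effect; tested at 10 µM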
CSC inhib: blocks cancer stem cells; cancer stem cell-like cells viability, luminescence; inhibition, % at 7.5 µM; 1.1% of 300,000 active; AID 2717;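 active = mean at 75% or more and at least half the replicates too; tested in HMLE shEcad cells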;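 note: 0% = median of negative and 100% = median of positive control wells; the first replicate is given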
eIF4H FP inh retest: also measured in eIF4H FP inh; calls as there; inhibition, %; compound at 20 µM; confirmation average;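 mean of two retest wells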
PABP polyA inh retest: second read-out of PABP polyA inh, no call of its own (marks repeat the call); inhibition, %; compound at 20 µM; confirmation repeats;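 mean of two retest wells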
MT1-MMP act inh RFP: also measured in MT1-MMP act inh; calls as there; RFP signal change, %; measured here: RFP expression control read;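 0 = vehicle wells; hits needed this value within 50% of zero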
* = called active by the depositor; i = inactive; . = no result given. The list is partial; count on the stated rates, not on these rows.

SMILES	eIF4H FP inh	Yeast UUG start	HIV Env fusion	MT1-MMP act inh	MT1-MMP act inh RFP	PABP polyA inh	Rce1 inh	CSC inhib	others
CCCCN1CC(=O)N2[C@H]3c4ccccc4OC[C@@H]3[C@H](c3ccccc3)[C@]2(C)C1=O	.	-4.9	82.9*	-0.8	0.4	.	.	-3.1
Cc1ccc(C(=O)NCC(=O)OCC(=O)Nc2ccccc2C#N)s1	-0.6	.	-6.6	0.7	2.4	1.7	i	3.3
CC1(C)CC(=NNC(=O)c2n[nH]c3c2CCC3)CC(C)(C)N1	3.4	.	-9.7	-0.2	3.4	-4.8	i	-4.8
Cc1c(C(=O)NCC(C)C)sc2nc(-c3ccc(F)cc3)cn12	-2.5	-9.7	-217.9	-0.7	1.6	4.4	i	-0.7
Cc1noc(C)c1C(=O)Nc1ccccn1	1.5	-11.0	3.2	-0.5	3.1	-4.8	i	-3.7
CCCN(Cc1cc2ccccc2[nH]c1=O)C(=O)c1cccc([N+](=O)[O-])c1	1.1	-9.4	-36.8	1.0	-1.1	7.2	i	-11.0
COc1cccc(/C=C/C(=O)OCC(=O)c2c(N)n(C)c(=O)n(C)c2=O)c1	.	-7.9	.	1.6	-2.0	.	.	5.2
O=C(NCCN1CCOCC1)c1ccc2c(c1)ncn2C1CCCCC1	-10.8	-17.1	.	-1.8	0.0	-9.3	i	-0.1
CCOC(=O)N1CCN(C(=O)COc2ccc(Cl)cc2)CC1	-17.3	-8.6	.	2.3	2.5	-9.6	i	4.5
COc1cccc(CN(Cc2ccccc2F)S(=O)(=O)c2ccc(S(=O)(=O)NCc3ccccc3)cc2)c1	-3.6	.	67.9*	2.7	-4.0	-9.1	i	11.6
COC(=O)Nc1ccc(OCC(=O)N2CCOCC2)cc1	0.3	-14.0	.	4.1	6.6	-14.8	i	-4.5
CCS(=O)(=O)N1Cc2ccccc2CC1C(=O)Nc1ccccc1OC (configuration not stated)	-7.3	-9.7	12.5	-4.5	-1.9	0.5	i	-9.9
CCOC(=O)c1nc2c(=O)n(C)c(=O)n(C)c2n(C)c1=O	.	.	-3.0	2.0	1.8	.	i	-6.5
O=C(N/N=C\c1ccc(O)c([N+](=O)[O-])c1)C1COc2ccccc2O1 (configuration not stated)	-19.2	2.7	23.2	1.8	-6.3	-9.8	i	-6.7
CCOC(=O)c1sc(C)c(C(N)=O)c1NC1=NCCCCC1	2.6	11.2	.	-4.2	0.0	-2.4	i	-6.1
Cc1ccc(C2/C(=C(/O)c3ccc(Cl)cc3)C(=O)C(=O)N2CC2CCCO2)o1 (configuration not stated)	9.3	-9.6	.	10.3	2.9	7.0	i	1.9
Cc1ccc(C(=O)C(C)OC(=O)c2cc3cc([N+](=O)[O-])ccc3oc2=O)cc1 (configuration not stated)	2.4	-16.9	.	1.3	-0.4	29.5	i	-6.1
CCC(C)NC(=O)C1c2ccccc2C(=O)N1Cc1ccccc1 (configuration not stated)	-4.6	5.7	-16.9	3.0	2.8	-2.9	i	-11.3
Cc1ccccc1C(=O)N1CCc2ccccc2C1	-4.3	-8.5	.	6.9	0.1	-3.6	.	-4.4
COc1cccc(CNC(=O)c2n[nH]c3ccccc23)c1	-2.1	-16.0	0.3	1.2	2.2	-7.6	i	2.5
Cc1ccsc1C(=O)N1CCCC(CCC(=O)NCc2ccc(F)c(F)c2)C1 (configuration not stated)	-13.9	-16.8	1.5	-0.6	0.0	-4.6	i	-10.0
COc1ccc(-n2cnc3cc(C(=O)NC4CCCC4)ccc32)cc1	-7.0	-16.4	16.2	4.3	4.5	-14.5	.	-13.6
Cc1cc(C)n(C(=O)CNC(=O)Cc2ccccc2)n1	-9.8	-27.7	.	-0.9	4.3	1.7	i	3.8
O=c1c2c3c(sc2nc2n1CCCCC2)CCCC3	-5.7	-9.3	-151.6	1.9	4.0	3.8	i	6.0
O=C1C(Cc2cccc([N+](=O)[O-])c2)S/C(=N/N=C/c2ccco2)N1c1ccccc1 (configuration not stated)	27.8	-5.7	-34.5	2.6	3.4	3.2	i	51.1
O=C(CN1C(=O)c2ccccc2S1(=O)=O)N1CCOCC1	2.5	.	.	2.5	1.5	-9.8	i	.
CC(C)C[C@@H](CO)N1CCN(CCCc2ccccc2)CCC1=O	-0.3	-5.8	5.5	2.2	4.4	3.3	i	-0.2
Cc1ccc(/C=C/c2nc3ccccc3s2)s1	15.7	-67.6	-366.6	-16.0	0.0	25.5	i	5.7
CC(=O)n1nc(-c2ccc(Cl)cc2)nc1NCc1ccco1	1.0	-10.2	-114.5	0.8	-14.3	-7.5	.	11.3
Cc1ccc(S(=O)(=O)NCC(C)NS(C)(=O)=O)cc1 (configuration not stated)	-7.7	-6.9	-61.5	-2.9	0.4	-7.2	i	-11.4
CCc1nnc(NS(=O)(=O)c2ccc(NC(=S)NC(=O)/C=C/c3ccccc3)cc2)s1	7.7	.	.	-1.2	-1.6	-5.9	i	2.3
COC(=O)c1cccc(-c2ccc(C(c3c(C)[nH][nH]c3=O)c3c(C)[nH][nH]c3=O)o2)c1	-0.5	-29.1	-7.5	-1.4	-3.0	4.2	i	2.8
O=C(Nc1ccc(Cl)cc1)c1csc([C@@H]2O[C@H](CO)[C@H](O)[C@H](O)[C@H]2O)n1	.	-12.1	-19.5	0.5	3.1	.	.	.
CC(OC(=O)CCNS(=O)(=O)c1ccccc1)C(=O)Nc1ccc(S(=O)(=O)N2CCCCC2)cc1 (configuration not stated)	.	-3.5	-11.6	-2.7	-1.7	.	.	.
COc1ccccc1-c1cc(-c2cc(Cl)ccc2O)n[nH]1	6.4	-16.2	-25.9	9.6	7.0	3.1	i	23.1
COc1ccc(C(C)=O)cc1COC(=O)CCNS(=O)(=O)c1ccc(C(C)=O)cc1	-16.7	8.6	3.1	-2.3	-0.9	-5.8	i	-0.7
CCCN1C2CCCC1CC(NC(=O)c1ccccc1OC)C2 (configuration not stated)	-2.9	-0.6	-2.7	0.2	0.4	-0.9	i	7.8
Cc1cccc(Nc2nnc(SC/C(O)=C(\C#N)c3nc4ccccc4[nH]3)s2)c1C	43.1	3.9	-60.4	-19.1	1.8	3.9	i	6.2
CCCCCCOC(=O)C(C#N)c1nc2ccccc2nc1N1CCN(CC)CC1 (configuration not stated)	39.9	-7.5	-23.2	-13.4	-14.2	35.9	i	25.5
C[C@]12C(=O)N(c3ccc(Cl)cc3)C(=O)N1[C@@H]1c3ccccc3OC[C@@H]1[C@H]2c1ccccc1	.	-16.9	18.1	-0.4	-3.5	.	i	-5.7
CCc1ccc2c(c1)NC(=O)C2(C)Cc1ccc(F)cc1 (configuration not stated)	.	-2.6	-13.2	-1.0	0.1	.	.	.
COc1ccccc1CNC(=O)C(=O)c1cn(CC(=O)N2CCOCC2)c2ccccc12	-13.7	2.2	4.7	-0.5	6.9	-3.8	i	-6.6
C(=Cc1c[nH]c2ccccc12)c1nccc2ccccc12	.	-30.5	-4.4	-72.7	21.8	.	.	.
O=C(C1CC=CCC1)N1CCN(S(=O)(=O)c2ccc(F)cc2)CC1 (configuration not stated)	.	-11.1	-2.0	1.5	0.5	.	.	.
CCOc1ccc(CCNC(=O)c2[nH]c(C)c(C(C)=O)c2C)cc1OCC	1.0	.	3.8	0.9	-2.1	9.7	.	-5.5
CCCCn1c(O)c(N=NC(=O)c2ccncc2)c2cc(Br)ccc21	6.5	-19.4	17.2	5.6	-0.3	-4.2	i	51.3
COc1ccc(NS(=O)(=O)c2cn(C)cn2)cc1Cl	0.4	-6.4	-9.4	0.0	-1.3	2.1	i	2.1
CCCCc1[nH]c(=O)c(C#N)c2c1CCCC2	-8.7	.	-60.9	2.9	4.1	4.7	i	16.2
O=C(COC(=O)COc1ccc(Br)cc1)NC1CCS(=O)(=O)C1 (configuration not stated)	.	-24.7	0.2	2.1	6.7	.	.	.
CCCCOC(=O)Nc1ccc(S(=O)(=O)Nc2nccs2)cc1	-0.3	.	17.8	3.4	4.5	-2.4	i	-6.0
COc1ccc(C/C(C)=N/NC(=O)c2ccncc2)cc1	-11.0	.	3.3	2.9	3.2	117.7	i	2.7	eIF4H FP inh retest=-4.5;PABP polyA inh retest=-0.3
CC1=CN2C(=N)/C(=C/c3ccc(C)o3)C(=O)N=C2S1	12.2	.	-124.7	3.8	3.9	9.1	i	0.3
Cn1c(C(=O)N(Cc2ccccc2)Cc2cccs2)cc2sccc21	-1.8	-12.8	23.4	-12.8	-8.8	1.1	i	15.9
Cc1ccc(S(=O)(=O)N2CCN(CC(=O)NC3CCCc4ccccc43)CC2)c(C)c1 (configuration not stated)	2.4	-8.7	17.7	-3.0	-8.7	10.1	i	0.8
O=C1CN(C(=O)COC(=O)CCS(=O)(=O)c2ccccc2)c2ccccc2N1	.	2.8	.	0.4	2.8	.	.	-10.5
COc1ccc(NC(=O)Nc2nnc(C(C)C)s2)cc1	-1.4	-4.9	-153.6	2.8	-4.1	3.6	i	.
CN(C)c1ccc2nsnc2c1[N+](=O)[O-]	-0.6	-15.7	-8.3	3.8	0.4	-8.4	i	-9.7
Cc1cc(C)c(C(=O)COC(=O)C2CC3CCCC(C2)C3=O)c(C)c1 (configuration not stated)	.	.	14.6	-2.7	-2.3	.	i	3.2
Cc1nnc(SCC(=O)NC2CCCC2)n1CCc1ccccc1	1.1	-18.2	-11.1	0.6	5.7	-3.7	i	-2.8
COc1cccc(CN2CC(C(=O)NCCc3ccc(C)s3)CCC2=O)c1 (configuration not stated)	-3.9	-11.2	.	-2.4	0.8	-10.6	i	-20.0

(cont.)
SMILES	eIF4H FP inh	Yeast UUG start	HIV Env fusion	MT1-MMP act inh	MT1-MMP act inh RFP	PABP polyA inh	Rce1 inh	CSC inhib	others
CC1(Cc2cc(Cl)ccc2C(F)(F)F)C(=O)Nc2ccc(S(=O)(=O)NC3CCCCC3)cc21 (configuration not stated)	.	-12.3	15.5	-9.6	-11.5	.	.	.
O=C1CC[C@@H]2CC3(C[C@@H]4CCN1[C@H]24)Nc1cc(Cl)ccc1NC3=NC1CCCCC1 (some centres not stated)	.	13.9	-27.8	4.2	-0.5	.	.	.
Cn1c(=O)c2cc(NC(=O)CCc3ccc4c(c3)OCO4)ccc2n1Cc1ccc(F)cc1	.	-9.3	-8.8	-8.8	-18.5	.	.	.
O=C(CSc1nnc(-c2ccccc2Br)o1)N1CCOCC1	0.9	-4.8	-33.4	-0.2	0.6	4.0	i	16.8
CN(C)c1ccc(/C=N/NC(=O)c2cc(=O)[nH]c3ccccc23)cc1	-5.0	.	-0.2	2.3	3.2	-1.6	i	0.1
O=C(CSc1nnc(NC(=O)c2c(F)cccc2F)s1)NCc1ccc(F)cc1	.	-11.7	-2.8	1.0	4.3	.	i	-2.9
O=C(CSc1nc(C2CC2)nc2ccccc12)Nc1ccccc1N1CCOCC1	-5.7	.	10.3	-12.6	-11.0	2.9	i	13.9

Five consecutive entries out of the list so far, quoted:
SMILES	eIF4H FP inh	Yeast UUG start	HIV Env fusion	MT1-MMP act inh	MT1-MMP act inh RFP	PABP polyA inh	Rce1 inh	CSC inhib	others
CCCCN1CC(=O)N2[C@H]3c4ccccc4OC[C@@H]3[C@H](c3ccccc3)[C@]2(C)C1=O	.	-4.9	82.9*	-0.8	0.4	.	.	-3.1
Cc1ccc(C(=O)NCC(=O)OCC(=O)Nc2ccccc2C#N)s1	-0.6	.	-6.6	0.7	2.4	1.7	i	3.3
CC1(C)CC(=NNC(=O)c2n[nH]c3c2CCC3)CC(C)(C)N1	3.4	.	-9.7	-0.2	3.4	-4.8	i	-4.8
Cc1c(C(=O)NCC(C)C)sc2nc(-c3ccc(F)cc3)cn12	-2.5	-9.7	-217.9	-0.7	1.6	4.4	i	-0.7
Cc1noc(C)c1C(=O)Nc1ccccn1	1.5	-11.0	3.2	-0.5	3.1	-4.8	i	-3.7
